BasE inh = inhibitors of Acinetobacter baumannii siderophore enzyme BasE | 84,000 tested, 0.1% active | purified BasE, fluorescence polarization binding displacement | inhibition, % (no concentration beside the values);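 active means both replicates above 25% with normal brightness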;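 further: 0% = negative plate control signal and 100% = positive plate control signal; stock transfer was 100 nL into about 30 µL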
KSHV LANA nucl = inhibitors of KSHV LANA binding to nucleosomes | FITC-LANA1-23 / chicken nucleosome fluorescence polarization; stronger effect = lower value | z-score (no concentration beside the values) | 51,000 tested, 0.3% active | AID 720717;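 active means both repeat wells score below -2 in polarization z-score versus plate sample wells, excluding overly bright wells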;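 further: 100 nL library stock added to about 30 µL; numbers are from one replicate; some results filed as inactive read as strong as hits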
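Assay system: purified chicken nucleosomes with FITC-labelled LANA N-terminal peptide (1-23) / Probe or stimulus: 50 nM FITC-LANA1-23 probe / Compound dosing: pin-transferred compound, 100 nL / Times: compound with peptide–nucleosome mix 10–45 min at room temperature / Technique: fluorescence polarization, 480 nm excitation, 535 nm parallel and perpendicular emission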
Numbers without * were called inactive; . = not tested or not shown; & = joins results of further samples.

Second line of a record: BasE inh | KSHV LANA nucl
Cc1cccc(N2CCN(C(=O)c3ccc4c(=O)[nH]c5c(C(=O)NC(C)C)sc(=S)n5c4c3)CC2)c1C
  12 | 0.029
O=c1c(=S)[nH]ccn1-c1ccccc1
  2.4 | -0.41
CCCCCn1c(SC(C)C(N)=O)nc2ccccc21 (configuration not stated)
  -1.2 | .
O=C(c1ccc(=O)n(Cc2ccccc2)n1)N1CCN(c2ccccc2)CC1
  2.3 | .
O=S(=O)(c1ccc2oc(SCc3ccccc3C(F)(F)F)nc2c1)N1CCCCC1
  -1.3 | .
Cc1ccc(SCc2nc3ccccc3[nH]2)cc1
  . | 1.2
Nc1c2c(nc3ccccc13)N(C1CCCCC1)CC2
  -14 | .
CSc1nnnn1-c1ccc(S(=O)(=O)N(C)C)cc1
  -0.1 | -0.99
O=C1/C(=C\O)CCc2occc21
  4.5 | 0.013
CCOC(=O)c1c(C)[nH]c(C)c1C(=O)COC(=O)c1cccc(S(=O)(=O)NC)c1
  -1.2 | .
Nc1nccnc1C(=O)OCc1cc(=O)oc2ccc3ccccc3c12
  1.8 | .
Cc1nccn1CC(O)Cn1c2ccc(Br)cc2c2cc(Br)ccc21 (configuration not stated)
  2.8 | 2.6
COC(=O)C1=C(C)N=C2SCC(=O)N2C1c1ccccc1 (configuration not stated)
  6.7 | -0.88
Cc1cc(C2=NNC(=NC3CC3)SC2)c(C)n1Cc1ccco1
  0.4 | .
c1ccc2c(c1)OC1OC2Oc2ccccc21
  0.3 | -0.41
COC(=O)c1n[nH]c2c1CCC2
  -0.4 | 0.57
N=C1N=C2N=CC=CN2Cc2ccccc21
  -0.2 | .
O=S(=O)(NCC(c1ccccc1)n1cc(-c2ccccc2)nn1)c1ccc(Cl)cc1 (configuration not stated)
  -0.8 | .
Cc1ccc(-[n+]2cc(NC(=O)/C(C#N)=C/c3ccccc3)on2)cc1
  1.1 | .
c1ccc(CN2CCCC2)nc1
  0.4 | -0.69
C#CCn1c(CSc2ccccc2)nc2ccccc21
  -1.4 | -0.21
Cc1cc(C)c2c(CC(=O)NC(C)C)coc2c1
  1.1 | 0.53
Cc1cc(NC(=O)CN2CCCCC2)n(-c2ccccc2)n1
  . | 1.5
COC(=O)c1ccc(N2CCOCC2)c(NC(C)=O)c1
  -3.5 | 2.7
Cc1ccc(N=Cc2c(Sc3ccc(Cl)cc3)nc3sccn23)cc1
  -0.5 | .
CCOC1(c2cccs2)OC(c2cccs2)=C(c2cccs2)OC1c1cccs1 (configuration not stated)
  -0.6 | .
Cc1nc2ccccc2n1C(F)(F)C(F)F
  0.4 | -0.37
Cc1ccc(S(=O)(=O)NC(=O)N2CC3(C)CC2CC(C)(C)C3)cc1 (configuration not stated)
  2.5 | .
CCCc1noc2c1C(=O)CC(C)(C)C2
  2.4 | -0.43
CN(CCC#N)C(=O)C1CCN(S(=O)(=O)c2cccs2)CC1
  2.0 | .
Cc1c(C(=O)CSc2nnc(CN3CCOCC3)n2C)c2ccccc2n1C
  -1.3 | -1.3
Nc1nc(N)nc(CSc2nncs2)n1
  0.3 | .
CN(Cn1nc2c(Cl)cc(Cl)cn2c1=S)C1CCCCC1
  -0.1 | .
O=C(Oc1ccc(/C=N/O)cc1)c1ccccc1
  -0.4 | 0.46
COc1ccc(Cl)cc1-c1csc(CC#N)n1
  2.3 | .
CCN1CCC(N(Cc2cccc(OC)c2)C(=O)Nc2cc(C)cc(C)c2)CC1
  -1.6 | 0.2
Cc1ccc2c(c1)c1c(n2C)C(=O)CCC1
  -0.4 | 0.15
Cn1c(SCc2ccccc2)nnc1C1CCCN1CC(=O)N1CCN(c2ccc(F)cc2)CC1 (configuration not stated)
  0.6 | -0.78
C=CCSC1=N/C(=C\c2ccc(-c3ccc(F)cc3)o2)C(=O)S1
  -13 | -0.23
O=C(OCc1ccccc1)[C@@H]1CCCN1C(=O)c1cccs1
  1.1 | .
O=c1oc2ccc(Br)cc2cc1-c1csnn1
  0.1 | 0.93
Cc1nnc(SCc2cc(Cl)c3c(c2)OCCCO3)n1C1CC1
  0.8 | .
CN(CC(=O)O)C(=O)c1ccco1
  -1.5 | -0.56
O=C(OCc1cc(=O)n2c(n1)sc1ccccc12)C1CCN(S(=O)(=O)c2ccccc2)CC1
  0.1 | .
CC1CCCC(C)N1C(=O)Nc1ccccc1 (configuration not stated)
  0.4 | -0.21
COC(=O)/C=C/c1cc2ccccc2o1
  . | 0.76
CN1C(=O)c2ccccc2C(C(=O)O)C1c1cccs1 (configuration not stated)
  4.0 | 0.8
O=C(C1CCN(Cc2cnn(-c3ccccc3)c2-n2cccc2)CC1)N1CCC2(CC1)OCCO2
  -2.3 | 0.025
COc1ccc(/C=N/n2c(=O)c3c(ncn3/N=C/c3ccc(OC)cc3)n(C)c2=O)cc1
  1.4 | .
COCC(C)NC(=O)c1ccccc1NS(C)(=O)=O (configuration not stated)
  1.6 | -0.082
Cc1sc2nc(SCC(=O)c3ccc(O)cc3O)[nH]c(=O)c2c1C
  0.6 | .
CCOc1ccc(Nc2nc(Nc3ccc(OCC)cc3)nc(SC3=NCCS3)n2)cc1
  2.1 | .
Cc1[nH]c2ccc(-c3nnc(SCCC#N)n3C)cc2c1C
  6.8 | 1.1
C/C(CSC(=O)c1c(-c2c(F)cccc2Cl)noc1C)=N\O
  2.5 | .
c1ccc(-c2onc3ccc(C4OCCO4)cc23)cc1
  . | -0.92
CCn1cc(C=C2C(=O)OC(C)(C(C)(C)C)OC2=O)c2ccccc21 (configuration not stated)
  2.4 | .
Cc1cccc(C(CC(=O)Nc2nc(C)cs2)n2cccc2)c1 (configuration not stated)
  1.8 | -0.5
COc1ccc(C2=NOC(C(=O)NCC(C)C)C2)cc1 (configuration not stated)
  1.1 | -0.52
CCC(=O)O[C@H]1[C@H](O[C@@H]2[C@@H](C)[C@H](O[C@H]3C[C@@](C)(OC)[C@@H](O)[C@H](C)O3)[C@@H](C)C(=O)O[C@H](CC)[C@@](C)(O)[C@H](O)[C@@H](C)C(=O)[C@H](C)C[C@@]2(C)O)O[C@H](C)C[C@@H]1N(C)C
  -2.2 | -0.066&0.09
Cn1ncc2c(N(CCO)Cc3ccccc3)ncnc21
  1.7 | -1

More structures:
Second line of a record: BasE inh | KSHV LANA nucl
COc1ccc2ccc(OCC(=O)NCC(F)(F)F)cc2c1
  -1.4 | .
CCn1c(COC(=O)c2ccccc2)nc2cc(S(=O)(=O)N(C)C)ccc21
  -3.4 | .
Cc1cc(NC(=O)c2ccc(C)s2)n(-c2nc3ccccc3n2Cc2ccccc2F)n1
  0.6 | .
CC(C)c1ccc(-c2noc(C3CCCN(S(=O)(=O)c4ccccc4)C3)n2)cc1 (configuration not stated)
  -0.2 | 0.14
CCC(=O)N(c1nnc(SCC(=O)c2cc(C)n(C)c2C)s1)C1CC1
  1.2 | .
CC(C)c1ccc(-c2nnn(CC(=O)OC3CCCCC3)n2)cc1
  -0.7 | 0.2
O=C(COC(=O)c1ccccc1-n1cnnn1)c1ccccc1
  1.7 | .
O=C(CCCc1ccccc1)NCC1CCCO1 (configuration not stated)
  0.6 | 0.43
CC(C)C(OC(=O)c1cccs1)C(=O)NC1CCCC1 (configuration not stated)
  -1.0 | -2.1
CN1CCC(N(C)C(=O)c2nn(-c3ccccc3)c(=O)c3ccccc23)CC1
  -0.8 | .
O=C(Cc1ccc(S(=O)(=O)N2CCCC2)s1)Nc1ccc(-c2nnc3n2CCCCC3)cc1
  1.3 | .
S=C(N=P(N1CCOCC1)(N1CCOCC1)C12CC3CC(CC(C3)C1)C2)N1CCCC1
  0.9 | .
COc1cccc(C(=O)NC2CC3CCCC(C2)N3CC(=O)Nc2ccc(N(C)C)cc2)c1 (configuration not stated)
  1.1 | -0.89
CN(CCc1ccccn1)c1ncnc2c1oc1ccccc12
  -2.6 | .
CC(C)CSc1nnc(-c2nn(Cc3ccccc3)c(=O)c3ccccc23)o1
  0.5 | .
OC(CNc1ncnc2sccc12)c1ccccc1 (configuration not stated)
  -1.8 | .
NNC(=S)c1cc(Cl)cc(Cl)c1
  1.4 | .
CCOc1cccc2sc(NC(C)=O)nc12
  3.1 | .
CCOC(=O)CCSc1nc(C)cc(C(F)(F)F)c1C#N
  -16 | 0.94
CC(C)(C)NC(=O)c1ccccc1-c1nc(-c2ccccc2)no1
  0.9 | 0.049
Cc1noc(C)c1S(=O)(=O)N1CCCC1c1ccc2c(c1)OCCCO2 (configuration not stated)
  3.6 | .
Nc1nc(C(F)(F)F)nn1C(=O)c1ccc(Br)cc1
  0.9 | .
COC(=O)C1(C(F)(F)F)N=C2C=CC=CN2C(c2ccco2)=N1 (configuration not stated)
  2.2 | -0.68
CCCNC(=O)Nc1ccccc1N1CCCCC1
  1.0 | .
CC(C)[C@H](NS(=O)(=O)c1ccc2c(c1)OCCO2)C(=O)N=c1sc2ccccc2n1C
  1.8 | .
O=C(NC1CCCCC1)NC(c1ccc(Cl)cc1)c1nnc(-c2ccccc2)o1 (configuration not stated)
  0.3 | 0.32
C=CCNc1nc2ccccn2c(=O)c1/C=C1\SC(=S)N(CCOC)C1=O
  -20 | 2.2
CC1=CC(=C(C#N)c2nc3ccccc3s2)C=C(C)N1Cc1ccco1
  31 | .
CC(N)c1ccc2c(c1)OCCO2 (configuration not stated)
  -2.0 | 0.016
CC(=O)Nc1ccc(C(=O)CSc2nnc(C)o2)cc1
  3.8 | 0.67
CC1CCN(C(=O)c2ccc3c(c2)N(C)CCS3)CC1
  -2.6 | -0.23
CC(C)(C)c1cc(O)c2oc(=O)c(-c3nc(-c4ccccc4F)no3)cc2c1
  -6.5 | 0.95
COc1ccc2c(C)c(CC(=O)NCc3ccccc3)c(=O)oc2c1
  -1.1 | 0.83
C=CCn1c(=O)c2ccccc2n2c(SC(C)c3nnc(-c4cccs4)o3)nnc12 (configuration not stated)
  -0.4 | .
CC(=O)Nc1nc(CN2CCN(Cc3nc4ccccc4s3)CC2)cs1
  -1.5 | .
C[n+]1ccc(/C=C\c2ccco2)c2ccccc21
  -3.1 | .
COc1cc(/C=C/C(=O)O)cc(Cl)c1O
  3.5 | .
Cc1ccc(C(C(=O)NC2CCCCC2)N(C)C)cc1 (configuration not stated)
  0.3 | 0.028
O=C(Nc1ccc(F)cc1OC(F)(F)F)N1CCC(O)CC1
  1.2 | 0.63
CC(=O)N1CCN(S(=O)(=O)c2cccc(C(=O)NCCc3ccccn3)c2)CC1
  2.1 | .
CCN(CC)Cc1nonc1C
  0.8 | -1.7
COc1cc(/C=C/C(=O)O)cc(S(=O)(=O)N2CCc3ccccc32)c1OC
  0.7 | -0.34
Cc1cccc(C(=O)NC2=NCC(C)S2)c1 (configuration not stated)
  -0.2 | .
Cc1ccc2[nH]c(-c3ccccc3)c(CN3CCCC(C)C3)c(=O)c2c1 (configuration not stated)
  -3.0 | 0.36
ONC(=NCc1ccccc1)c1cccc(Cl)c1
  . | 0.017
Cc1ccc2onc(CNC(=O)Nc3ccccc3C)c2c1
  0.8 | -0.62
CCC(CC)C(=O)NCCc1ccc(OC)c(OC)c1
  1.3 | 0.41
c1csc(-c2csc3nc(CN4CCOCC4)nc(Sc4ncn[nH]4)c23)c1
  1.8 | .
CC(c1ccccc1F)n1cc(C(=O)NCCCn2ccnc2)nn1 (configuration not stated)
  -2.0 | 1.6
C=CCN1c2ccccc2NC(=O)C1CC(=O)Nc1ccc(C)cc1 (configuration not stated)
  1.6 | .
NC(=O)CCN1CCN(S(=O)(=O)/C=C/c2ccccc2)CC1
  -0.9 | .
Cc1nc(-n2cc(-c3ccccc3)nn2)nc2c1CCCC2
  . | -0.24
CC(C)Cn1nnc2c(=O)oc3ccccc3c21
  0.5 | 0.5
N/C(CN1CCSCC1)=N\O
  -3.2 | 1.4
Cc1ccccc1NC1C=CS(=O)(=O)C1 (configuration not stated)
  1.4 | .
CCN1C(=O)CSC1=Nc1ccccc1Cl
  0.2 | -0.11
CC(C)CCNc1cc(-c2ccccc2)nc2nncn12
  0.1 | -0.14
COC(=O)c1ccc(/C=N/OCC(=O)Nc2ccc3c(c2)OCCO3)cc1
  1.4 | .
Oc1ccc(NC(=S)Nc2ccc(O)cc2)cc1
  -3.0 | 0.13
Cc1ccc(NC(=O)c2ccccc2C)cc1
  0.6 | 0.9

Part of the list above in order of molar mass, falling:
Second line of a record: BasE inh | KSHV LANA nucl
CCC(CC)C(=O)NCCc1ccc(OC)c(OC)c1
  1.3 | 0.41
Cc1ccc(C(C(=O)NC2CCCCC2)N(C)C)cc1 (configuration not stated)
  0.3 | 0.028
ONC(=NCc1ccccc1)c1cccc(Cl)c1
  . | 0.017
CCN1C(=O)CSC1=Nc1ccccc1Cl
  0.2 | -0.11
C[n+]1ccc(/C=C\c2ccco2)c2ccccc21
  -3.1 | .
CCN(CC)Cc1nonc1C
  0.8 | -1.7

Carrying on:
Second line of a record: BasE inh | KSHV LANA nucl
CC(C)NC(=S)N/N=C/c1ccn[nH]1
  -0.1 | 0.94
O=C1c2ccccc2C(=O)N1CCOc1ncnc2c(Cl)cc(Cl)cc12
  0.4 | .
CCN(CC)CCc1c(O)n(-c2ccccc2)n(-c2ccccc2)c1=O
  0.8 | .
CCN(CC(=O)Nc1ccc(NC(C)=O)cc1)C(=O)Cc1ccccc1F
  1.1 | .
COc1cccc(CNc2ncn[nH]2)c1
  -1.2 | 1.4

Compound activity from PubChem BioAssay.

A portion of the library; rates above refer to the full screens.
